Compound activity (PubChem BioAssay)
E coli growth: blocks Escherichia coli growth | AID 1053175 | 0.21% of 330,000 active | OD600 absorbance (test concentration not listed) | OD600, 23 h; stronger effect = lower value;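 active = OD600 absorbance below the run mean of sample wells minus 3.6 SD, in any replicate, cut at about 0.56 in these data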;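 note: stock transfer was 300 nL into about 60 µL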
ALR inh: blocks human ALR sulfhydryl oxidase activity; P55789; inhibition, % (no concentration beside the values); purified ALR, DTT oxidation, H2O2 HRP-luminol luminescence; AID 485317; 3.8% of 290,000 active;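 active = mean and each replicate at 75% or more; inconclusive = only one of the two met; inactive = neither met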;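 note: stock transfer was 7.5 nL into about 7.5 µL; 0% = neutral wells and 100% = wells with inactivated enzyme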
Target sequence (P55789 whole entry, looked up): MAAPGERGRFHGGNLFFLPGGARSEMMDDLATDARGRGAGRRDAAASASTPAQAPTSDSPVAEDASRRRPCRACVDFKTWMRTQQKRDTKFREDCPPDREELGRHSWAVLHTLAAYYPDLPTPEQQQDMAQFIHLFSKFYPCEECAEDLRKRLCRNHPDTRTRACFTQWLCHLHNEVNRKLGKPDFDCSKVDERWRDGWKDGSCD
Vif TR-FRET: inhibitors of Vif binding to APOBEC3G peptide, primary screen, biochemical, TR-FRET, GST-Vif 1-94, biotin-A3G peptide, dose response retest (AID 1117319); TR-FRET GST-Vif / biotin-A3G peptide binding; higher % means a stronger effect; test concentration not given here; strong numbers were not always called active; inhibition, %, or IC50 in µM where a hit was titrated; 0.57% of 260,000 active;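 active = above the screen mean plus three standard deviations and confirmed in dose response; inconclusive = results disagree or hit not tested in dose response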;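 note: Vif residues 1-94 fused to GST binding biotinylated APOBEC3G peptide 110-148; 0% = full assay without inhibitor and 100% = GST in place of GST-Vif; retest series ran down from 100 µM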
Ecoli rRNA inh: inhibitors of bacterial rRNA selective over humanized ribosomes; AID 720706; E. coli WT GFP vs humanized-ribosome RFP mutants, fluorescence, 24 h; stronger effect = lower value; DMSO median 0, no signal -100; GFP signal change (wild-type ribosome), % (concentration not given with the values); 1.6% of 350,000 active;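 active = significant combined selectivity score with lowered wild-type GFP, culture density cut under 30%, mutant RFP and density less affected; inactive = any of these conditions unmet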; note: one replicate is shown; some compounds called inactive have numbers as strong as hits
MLL AF4-AF9 inh: inhibitors of human MLL-AF4/AF9 interaction; 0.47% of 350,000 active; AlphaScreen, biotin-AF4 peptide binding to FLAG-AF9; inhibition, % at 10 µM; P42568;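 active = every replicate reaching a set inhibition limit, whatever the replicate mean, cut at about 25% in these data; inconclusive = mean inhibition reaches that limit but some replicates miss it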;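 note: 0% = plate neutral control median and 100% = total signal loss; the record names both 10 and 1 µM as test concentration; the first replicate is given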
Target sequence (P42568 whole entry, looked up): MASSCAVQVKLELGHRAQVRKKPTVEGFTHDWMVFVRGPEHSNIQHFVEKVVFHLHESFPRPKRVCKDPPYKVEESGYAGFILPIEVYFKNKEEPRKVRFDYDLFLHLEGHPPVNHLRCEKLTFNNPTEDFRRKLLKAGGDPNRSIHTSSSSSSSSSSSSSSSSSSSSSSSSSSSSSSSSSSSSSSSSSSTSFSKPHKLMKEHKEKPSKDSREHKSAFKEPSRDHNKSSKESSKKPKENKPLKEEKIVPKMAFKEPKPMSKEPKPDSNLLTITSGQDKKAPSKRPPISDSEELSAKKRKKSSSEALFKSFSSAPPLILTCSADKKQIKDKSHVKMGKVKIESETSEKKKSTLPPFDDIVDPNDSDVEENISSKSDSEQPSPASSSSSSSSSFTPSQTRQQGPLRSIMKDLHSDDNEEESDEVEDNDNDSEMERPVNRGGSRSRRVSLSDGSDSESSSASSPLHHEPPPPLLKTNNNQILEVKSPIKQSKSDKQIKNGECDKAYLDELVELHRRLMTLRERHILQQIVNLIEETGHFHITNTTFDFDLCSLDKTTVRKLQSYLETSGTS
HNF4A DNA FP: change in binding of human HNF4 alpha to DNA; P41235; activity change, % at 10 µM; HNF4a-FITC DNA binding, fluorescence polarization, 1 h; AID 1224865; 0.3% of 360,000 active; in the data active = activity change above about 30%, passing the limit was not always enough;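 note: controls were the assay level and a saturating level of protein; the project sought stronger binding though the title names inhibitors; some compounds called inactive have numbers as strong as hits; positive values seem to mean higher polarization but the record does not say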
FGF22 binding: shifts melting point of recombinant human FGF22 | Q9HCT0 | recombinant FGF22 thermal shift, SYPRO orange fluorescence; percent of sucrose octasulfate shift, DMSO zero | calls only at 9.99 µM | 1.5% of 340,000 active | AID 651658;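 active = melting point raised past a set limit in the mean and every replicate; inconclusive = no clear call; three in four hits are not shown here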
Target sequence (Q9HCT0 whole entry, looked up): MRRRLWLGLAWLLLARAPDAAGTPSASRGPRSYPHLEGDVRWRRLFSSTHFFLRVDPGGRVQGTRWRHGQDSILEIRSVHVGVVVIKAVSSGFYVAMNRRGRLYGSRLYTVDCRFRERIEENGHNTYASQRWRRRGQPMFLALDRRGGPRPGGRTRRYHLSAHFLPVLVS
Ecoli rRNA inh OD600: recorded beside Ecoli rRNA inh, whose call it bears; OD600 change, %; measured here: OD600 growth;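 optical density of the mix in the first replicate; 0 = DMSO median and -100 = no signal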
Ecoli rRNA inh RFP: second read-out of Ecoli rRNA inh, no call of its own (marks repeat the call); RFP signal change, %; measured here: RFP humanized mutant strains;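 first replicate; 0 = DMSO median and -100 = no signal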
Numbers without * were called inactive; i = inactive; ? = inconclusive; / = no result given; & = joins results of further samples.

SMILES	E coli growth	ALR inh	Vif TR-FRET	Ecoli rRNA inh	Ecoli rRNA inh OD600	Ecoli rRNA inh RFP	MLL AF4-AF9 inh	HNF4A DNA FP	FGF22 binding
COc1cc(/C=C2/SC(=S)N(Cc3ccccc3)C2=O)cc(Cl)c1O	/	47.5	-8.1%	25.2	6.8	29.5	1.5	102.6	i
COC(=O)c1[nH]c2ccccc2c1NC(=O)CN1CCN(C/C=C/c2ccccc2)CC1	0.681	-4.9	-4.1%	-42.8	-34.8	5.7	17.9	1.5	/
O=C(C[C@@H]1C[C@H]2c3cc(NC(=O)Nc4ccc(C(F)(F)F)cc4)ccc3O[C@H]2[C@H](CO)O1)NCc1ccc(Cl)cc1	/	/	/	-10.4	-39.1	35.6	4.5	/	i
COCCn1c(-c2ccc(-c3ccc([N+](=O)[O-])cc3Br)o2)nc2c1c(=O)[nH]c(=O)n2CC(C)C	0.727	27.3	-3.8%	0.8	-11.7	2.2	2.3	13.5	i
Cc1cc(NC(=O)COC(=O)c2nccnc2N)n(-c2ccccc2)n1	0.712	-12.4	/	11.2	13.0	1.2	-0.8	-1.4	i
CCOC(=O)c1c(NC(C)=O)sc2c1CCC(C=O)=C2Sc1ccccc1	0.7	1.1	?	-4.6	-13.4	10.9	12.7	-20.5	i
COc1ccc(C)cc1S(=O)(=O)NC(C)c1cnn(-c2ccccn2)c1C (centres undefined)	0.676	3.8	/	0.3	2.7	0.8	1.3	-3.1	i
CC(C)C(O)C1CCN(Cc2nc(Cc3ccccc3Cl)no2)CC1 (centres undefined)	0.706	-1.2	9.4%	-1.0	-4.3	-1.0	-1.2	0.7	i
O=C1CCC(C(=O)N2CCCCO2)CN1Cc1cccc(C(F)(F)F)c1 (centres undefined)	0.699	-5.6	/	1.9	11.0	0.8	-1.8	1.3	i
O=C(O)c1ccc(Cn2cnc3c(=O)[nH]cnc32)cc1	0.727	/	-6.2%	4.6	9.7	-2.5	2.0	-3.4	i
CCc1nn(CCCC(=O)NCc2ccccc2C)c(=O)c2cc3occc3n12	0.68	4.2	/	2.6	4.5	-0.1	-1.2	2.7	i
C=C1c2nc3ccccc3n2C=C(c2ccc(C)cc2)N1c1ccccc1	/	/	0.9%	-6.4	-1.6	3.8	8.9	-1.4	i
COc1ccc(-c2sc3ccc(-c4ccc5c(c4)OCO5)cc3c2-c2ccc(OC)nc2)cc1	0.724	-1.9	/	12.9	7.0	-2.8	-1.1	-0.7	i
CCS(=O)(=O)N1CCN(CC(=O)NC2CCCCC2)CC1	0.707	2.2	/	11.4	18.1	1.1	-1.3	-1.9	i
Cc1cc(Cl)ccc1NC(=O)CN1C(=O)CSc2ccc(S(=O)(=O)N3CCOCC3)cc21	0.696	-2.3	/	0.4	-7.0	0.3	0.9	-4.3	i
Cc1cc(C(=O)CSc2nnc(-c3ccc(F)cc3)o2)c(C)n1CC1COc2ccccc2O1 (centres undefined)	0.726	-2.5	12.0%	/	/	/	/	2.1	/
C[C@H]1CN([C@@H](C)CO)C(=O)c2cc(-c3ccccc3F)cnc2O[C@H]1CN(C)Cc1ccccc1F	/	/	/	-5.9	-3.6	1.9	0.0	/	i
COc1cc2c(C#CCCCO)c(-c3ccc(C#N)cc3)oc(=O)c2cc1OC	0.721	-8.2	/	7.1	-4.7	-3.6	-3.7	-4.6	i
CSc1cccc(NC(=S)N2CCCN(Cc3ccc(F)cc3)C2)c1	0.64	-2.7	-3.2%	2.1	1.1	-0.9	-9.9	-1.2	i
COc1cc(C(=O)Oc2cccc(/C=N/NC(=O)c3cc(C)[nH]n3)c2)cc(OC)c1OC	/	1.1	/	2.4	-5.5	0.3	3.2	1.9	i
COc1ccc2nc(NC(=O)CSCc3c(C)noc3C)sc2c1	0.662	0.8	-8.0%	-15.9	-15.6	2.4	0.6	-1.8	/
Cc1cc(C)nc(N2CCC(C(=O)Nc3ccc4c(c3)OCO4)CC2)n1	0.712	-5.9	24.9%	/	/	/	/	3.3	/
COc1cc(C(=O)NCCOc2ccccc2)cc(OC)c1OC	0.599	-4.2	2.7%	6.4	1.9	-4.2	-0.8	1.1	i
Cc1ccc(Cn2cnc3c(cnn3-c3ccc(F)cc3)c2=O)cc1	0.685	-20.1	-6.9%	5.2	3.0	-3.0	-2.6	0.6	i
CCN(CCCNC(=O)C1CCN(S(=O)(=O)N2CCC3(CC2)OCCO3)CC1)c1ccccc1	0.654	98.8*	3.9%&1.2%	/	/	/	/	1.6	/
CCOC(=O)CN(C(=O)Cn1nnc2ccccc21)C(C(=O)NCCOC)c1ccccc1C (centres undefined)	0.677	7.1	4.9%	/	/	/	/	2.5	/
C[C@@H]1CN([C@@H](C)CO)S(=O)(=O)c2ccc(-c3cncnc3)cc2O[C@@H]1CN(C)Cc1cncnc1	/	/	/	0.3	11.1	-5.8	-3.0	/	i
O=C(C1CCC1)N1CCC(c2nc3c(nnn3Cc3c(F)cccc3Cl)c(=O)[nH]2)CC1	0.723	-1.4	24.1%	/	/	/	/	2.1	/
CC1(c2ccccc2)CC(c2ccccc2)=Nc2nonc2N1 (centres undefined)	0.764	0.5	1.8%	/	/	/	/	0.5	/
COCC(=O)N1CCN(c2cccc(C(F)(F)F)c2)CC1	0.693	-11.1	/	7.3	4.3	1.4	-0.4	-1.4	i
Cc1cc(C)c2cc(C#N)c(NCCCN)nc2c1	/	/	/	/	/	/	3.3	4.1	i
Cc1ccc(S(=O)(=O)N(C)C[C@@H]2Oc3ccc(NC(=O)NC4CCCCC4)cc3C(=O)N([C@@H](C)CO)C[C@@H]2C)cc1	/	/	/	-4.7	-10.6	0.6	2.0	/	i
COc1ccc(Cl)cc1NC(=O)C/C(C)=N/NC(=O)c1ccccc1Cl	/	-0.7	/	10.5	8.7	2.0	0.2	-2.4	i
Cc1cccc(C)c1NC(=O)CSc1nc(COc2ccccc2)nc2ccccc12	0.722	-1.9	-20.8%	/	/	/	/	5.0	/
COC(=O)C1=C(C)N(CCCC(=O)O)C(=O)NC1c1ccc(Cl)cc1 (centres undefined)	0.648	0.5	/	-7.0	-16.5	14.6	4.7	4.8	i
C[C@H]1CN([C@@H](C)CO)C(=O)CCCn2cc(nn2)CO[C@@H]1CN(C)C(=O)Nc1ccnc(N2CCOCC2)c1	/	/	0.3%	4.3&1.0	17.9&0.0	20.2&-1.8	-2.6&0.6	3.5	i
C[C@H](CO)N1C[C@H](C)[C@H](CN(C)C(=O)NC2CCCCC2)Oc2ccc(NC(=O)Nc3ccccc3)cc2CC1=O	/	/	/	5.5	-5.4	-0.7	-1.0	/	i
CCOc1ccccc1NC(=O)N1CCCN(c2ncccc2C#N)CC1	0.683	-5.9	6.0%	-6.7	-2.5	0.3	2.5	-1.1	i
COC(=O)C1=C(N)c2c(F)cccc2C1(C#N)c1ccccc1 (centres undefined)	0.726	-1.9	3.1%	/	/	/	/	0.3	/
Cc1ccc(S(=O)(=O)N(C)C[C@H]2OCCCC[C@@H](C)Oc3ccc(NC(=O)NC4CCCCC4)cc3C(=O)N([C@@H](C)CO)C[C@H]2C)cc1	/	/	/	-1.3	0.9	-0.9	-2.0	/	i

A draw from above in order of length of the SMILES, lowest first.
SMILES	E coli growth	ALR inh	Vif TR-FRET	Ecoli rRNA inh	Ecoli rRNA inh OD600	Ecoli rRNA inh RFP	MLL AF4-AF9 inh	HNF4A DNA FP	FGF22 binding
Cc1cc(C)c2cc(C#N)c(NCCCN)nc2c1	/	/	/	/	/	/	3.3	4.1	i
O=C(O)c1ccc(Cn2cnc3c(=O)[nH]cnc32)cc1	0.727	/	-6.2%	4.6	9.7	-2.5	2.0	-3.4	i
COC(=O)c1[nH]c2ccccc2c1NC(=O)CN1CCN(C/C=C/c2ccccc2)CC1	0.681	-4.9	-4.1%	-42.8	-34.8	5.7	17.9	1.5	/

New compounds follow:
SMILES	E coli growth	ALR inh	Vif TR-FRET	Ecoli rRNA inh	Ecoli rRNA inh OD600	Ecoli rRNA inh RFP	MLL AF4-AF9 inh	HNF4A DNA FP	FGF22 binding
O=C(OCC(=O)N1CCCc2ccccc21)c1cnc(Cl)c(Cl)c1	0.684	/	18.7%	-6.7	-4.1	1.1	-8.5	-1.9	i
C[C@@H]1CN([C@H](C)CO)C(=O)c2cc(NC(=O)Cc3cn(C)c4ccccc34)ccc2O[C@@H]1CN(C)Cc1ccc(Oc2ccccc2)cc1	/	/	/	5.6	9.9	10.4	1.9	/	i
CC(=O)c1cc(CN2C(=O)CCC2=O)cs1	0.706	-7.5	0.0%	-0.1	1.8	-1.4	-3.1	0.4	i
CC(C)(C)S(=O)(=O)N1C[C@H]2C(=C(CCO)C[C@H]3C(=O)N(c4ccccc4)C(=O)[C@H]32)[C@@H]1CCO	/	/	/	-22.6	-42.4	-8.5	1.3	/	i
C=CCN1C(=O)/C(=C/C(=O)OC)S/C1=N\NC(=O)c1ccccc1	/	3.9	4.0%	5.6	24.7	-1.6	-4.2	9.2	i
CNC(=O)CSc1nc(N)c2c3c(sc2n1)CCC3	0.689	/	7.2%	/	/	/	/	-0.7	/
CSc1nc(=NC(C)=O)ss1	0.672	1.9	-4.5%	/	/	/	/	5.2	/
O=c1ccn([C@@H]2O[C@H](CNCc3ccc(-n4cccn4)cc3)[C@@H](O)[C@H]2O)c(=O)[nH]1	/	/	/	9.2	18.2	-0.6	-4.1	2.3	i
C[C@@H]1CN([C@@H](C)CO)C(=O)c2cc(NC(=O)c3ccncc3)ccc2O[C@@H](C)CCCCO[C@H]1CN(C)C(=O)Nc1ccc(C(F)(F)F)cc1	/	/	/	-2.5	-9.2	-1.4	-2.8	/	i
O=C(c1cnn2ccccc12)N1CCN(C2CCCCC2)CC1	0.736	1.7	-7.0%	3.6	9.3	1.7	-0.7	4.9	i
O=C(CNC(=O)c1ccccc1Cl)c1ccccc1	0.671	-1.0	/	2.9	5.6	-1.0	-2.7	-0.9	i
C[C@@H]1CN([C@H](C)CO)C(=O)Cc2cc(NC(=O)C3CCCCC3)ccc2O[C@@H]1CN(C)S(=O)(=O)c1ccccc1	/	/	/	-2.6	3.2	1.3	-2.9	/	i
C/C(=N\NC(=O)c1ccccc1F)c1ccc(C#N)cc1	/	-5.2	1.8%	16.9	4.6	4.1	-1.9	-23.7	i
C[C@@H]1CN([C@@H](C)CO)C(=O)c2cc(-c3ccccc3F)cnc2O[C@@H]1CN(C)Cc1ccccc1	/	/	/	4.0	10.3	4.1	-2.7	/	i
C[C@@H]1CN([C@@H](C)CO)C(=O)c2cccc(NS(=O)(=O)c3ccc(Cl)cc3)c2O[C@@H]1CN(C)C(=O)Nc1ccccc1	/	/	/	-2.5	-11.2	0.2	-7.6	/	i
O=C(Nc1nccs1)c1ccc(Cl)c([N+](=O)[O-])c1	0.636	2.7	/	-1.5	12.3	-1.7	1.8	-0.5	i
CSc1ccc(/C=C(\NC(=O)c2ccco2)C(=O)N2CCCCC2)cc1	0.667	24.2	/	-3.8	-4.9	1.8	1.1	4.7	i
O=C(CS(=O)(=O)c1ccccc1)Nc1cccnc1	0.707	-2.8	25.5%	9.0	3.5	-3.3	-2.7	1.6	i
N#C[C@H]1[C@@H](c2ccc(-c3cccc(F)c3)cc2)[C@@H](CO)N1c1nc(-c2ccccc2)cs1	/	/	/	0.2	3.6	1.6	-0.7	/	i
O=C(/C=C/c1ccc(Cl)cc1Cl)NCc1ccco1	0.678	-7.0	-10.3%	/	/	/	/	0.9	/
COc1cccc(C(=O)N=c2sc3cc(S(C)(=O)=O)ccc3n2C)c1	0.685	1.5	-57.5%	5.8	16.5	0.0	0.5	5.8	i
O=C(COC(=O)c1ccc(Br)o1)Nc1nc2ccccc2s1	0.624	30.1	0.1%	/	/	/	/	5.2	/

The list is partial, so the mix of outcomes need not match the whole.
